# VDR inhibitor: blocks the human vitamin D receptor. P11473. VDR-SRC2-3 peptide fluorescence polarization, 2 h. Potency, µM, for the others: max response, negative = inhibition, usual class: inhibitors. 400,000 tested, 0.93% active. AID 504847; active means well fitted inhibition curve with a large enough effect; inconclusive means small, poorly fitted or top-dose-only effect, or another doubt; inactive means no such curve, though single readings can be large or run the other way; further: series mostly up to about 120 µM
# Target sequence (P11473 whole entry, looked up): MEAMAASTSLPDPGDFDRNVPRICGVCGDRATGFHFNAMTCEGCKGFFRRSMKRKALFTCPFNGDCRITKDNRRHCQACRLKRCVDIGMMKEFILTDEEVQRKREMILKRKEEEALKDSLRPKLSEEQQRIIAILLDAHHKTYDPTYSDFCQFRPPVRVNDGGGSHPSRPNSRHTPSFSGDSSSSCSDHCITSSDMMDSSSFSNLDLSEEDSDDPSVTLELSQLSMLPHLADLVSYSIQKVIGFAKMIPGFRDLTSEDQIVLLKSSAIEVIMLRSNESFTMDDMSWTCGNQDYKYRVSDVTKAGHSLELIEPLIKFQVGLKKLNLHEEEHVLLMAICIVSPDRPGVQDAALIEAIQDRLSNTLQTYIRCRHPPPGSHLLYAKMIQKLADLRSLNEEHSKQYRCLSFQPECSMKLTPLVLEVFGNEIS
#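 VDR–SRC2-3 interaction, FP format. Cmpds 23 nl via pintool, brief spin, 2 h ambient incubation.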
# An asterisk follows results filed as active; ? = inconclusive; & = joins results of further samples; [ ] = another dose, or the depositor's remark. On the % scale 0 is the no-effect control and ±100 the full control effect; potency means the concentration at half of the fitted maximal effect. Some of the compounds tested; rates above refer to the full screens.
VDR inhibitor	structure
12%	Cc1cc(=O)oc2cc(NC(=O)C3COc4ccccc4O3)ccc12 (configuration not stated)
-23%	Cc1ccc(C(=O)Nc2ccccc2C(=O)O)cc1NC(=O)COc1c(C)cccc1C
13%	Cc1cc(C(=O)COc2ccc(Cl)cc2Br)c(C)n1C
-10%	O=C(N/N=C/c1c(O)n(-c2ccccc2Cl)c(=O)c2ccccc12)C1COc2ccccc2O1 (configuration not stated)
-5%	CC(C)OCCCNC(=O)c1ccccc1Oc1ccccc1
-5%	COc1cccc(/C=N/NC(=O)Cn2nc([N+](=O)[O-])cc2C)c1
-7%	O=C1N/C(=N\N=C\c2cccs2)SC1Cc1ccc(Cl)cc1 (configuration not stated)
-3%	C=CCCCCCCCCC(=O)NNC1CC(=O)N(c2ccccc2)C1=O (configuration not stated)
17%	Cc1ccc(-n2ccc(=O)c(-c3ccnc(SCc4cccc(Cl)c4)n3)n2)cc1
-4%	Cc1cccc(Nc2ccc(C(=O)O)cc2[N+](=O)[O-])c1C
-11%	CCC(=O)NCCc1cc2cc(C)c(C)cc2[nH]c1=O
15%	Cc1n[nH]c(=O)nc1NCc1ccccc1Cl
11%	CCCc1cc(-c2[nH]ncc2-c2ccc3c(c2)OCCCO3)c(O)cc1O
?	CCOc1cc(/C=C/C(=O)O)ccc1OCCO
-7%	Cc1ccc(O)c(C(CC(=O)NC2CCCCC2)c2ccccc2)c1 (configuration not stated)
3%	Cc1c(NC(=O)CCCN2C(=O)c3cccc4cccc(c34)C2=O)c(=O)n(-c2ccccc2)n1C
8%	Cc1cc(N2CCN(C)CC2)nc2ccc(NC(=S)N3CCCCCC3)cc12
-2%	Cc1cc(C)c2c(CN3CCCCC3C)cc(=O)oc2c1 (configuration not stated)
-5%	N#CCCN(Cc1ccccc1)S(=O)(=O)c1cccs1
-12%	Cc1c(N2CCCC2)cc2c(c1N)C(C)(C)CC2(C)C
10%	CCN(CC)Cc1cc(C(=O)O)c(-c2ccccc2)o1
-2%	CC(C)(C)NC(=O)C(=O)NNC(=O)C12CC3CC(CC(C3)C1)C2
-7%	CC(=O)C1=C(O)C(=O)N(Cc2ccccc2)C1c1ccc(Br)cc1 (configuration not stated)
-2%	COc1cc(CNCCO)cc(Br)c1OCc1ccccc1
-14%	CC(Cc1ccccc1)NC(=O)/C=C/c1ccc([N+](=O)[O-])cc1 (configuration not stated)
1%	Cc1cc(C)c2c(=O)c3c(oc2c1)C(=O)N(CCCOC(C)C)C3c1ccccc1F (configuration not stated)
-10%	COc1ccccc1N/N=C/c1c(CO)cnc(C)c1O
-1%	O=C(CN1CCN(Cc2ccccc2Cl)C1=O)NCc1ccccc1Cl
-6%	CCOC(=O)C(NC(=O)c1cccnc1)(Nc1cccc(C)n1)C(F)(F)F (configuration not stated)
3%	CC(C)(C)C(=O)CC(=O)Nc1ccc(Cl)c(N)c1
-15%	CCSc1nnc(NC(=O)CN(C)S(=O)(=O)c2ccc(F)cc2)s1
-27%	COC(=O)c1ccc(C(=O)N(CCN(C)C)c2nc3c(Cl)cccc3s2)cc1
3%	CCc1ccc(OCCCC(=O)O)c(Br)c1
-8%	O=C(Nc1ccccc1C(=O)NCc1ccco1)NC1CCCCC1
5%	NNC(=O)CN1C(=O)Nc2ccc(Cl)cc2C1c1ccccc1 (configuration not stated)
-3%	Cc1ccc(CN(C(=O)c2csnn2)C(C(=O)NC2CCCC2)c2ccccn2)cc1 (configuration not stated)
-13%	CCc1cccc(NC(=O)CCSCCC(=O)Nc2cccc(CC)c2)c1
9%	CCCCNC(=O)c1nn(-c2ccc(C)cc2)c(=O)n(C)c1=O
-2%	Cc1cnc(C(=O)Nc2ccc(C)c(S(=O)(=O)N3CCCCCC3)c2)cn1
14%	CCOc1ccc(C2c3[nH]c4ccccc4c3CCN2C(=O)Cc2cccc(OCC)c2OCC)cc1 (configuration not stated)
6%	COc1ccc(Cl)cc1NC(=O)CN(C)C(=O)CCCNC(=O)c1ccc(Cl)cc1
-11%	COc1cccc(CN(C)C(=O)c2cccnc2SC)c1OC
14%	CC(C)c1ccc2oc(-c3ccc(Cl)c(NC(=O)c4cccs4)c3)nc2c1
6%	COc1ccc(CNC(=O)C2CC(=O)N(c3ccc(OCC(=O)N4CCCCC4)cc3)C2)cc1 (configuration not stated)
40µM*	Cc1ccc(NC(=S)NNc2ccc([N+](=O)[O-])cc2S(=O)(=O)Nc2ccccc2C(=O)O)cc1C
-1%	Cc1ccsc1/C=C(\C#N)C(=O)NC1CCS(=O)(=O)C1 (configuration not stated)
-12%	COc1ccccc1Nc1nc(N)nc(CSC(=S)N2CCN(c3ccccc3)CC2)n1
-14%	O=C(NNC(=O)C1CC1c1ccccc1)c1ccccc1[N+](=O)[O-] (configuration not stated)
-30%	Cc1cc(C)n(/N=C/c2ccc(O)cc2)c(=O)c1C#N
2%	COc1ccccc1C(=O)N1CCN(c2cccc(C(F)(F)F)c2)CC1
-3%	COc1ccc(OCCN2C(=O)c3ccccc3C2=O)c([N+](=O)[O-])c1
?	CC(OCCN1CCCC1)(c1ccc(F)cc1)c1ccc(F)cc1
-1%	COc1ccc(NC(=O)CCCC2CCCCC2)c(OC)c1
-17%	Cc1ccccc1OCC(=O)N1CCCc2ccccc21
-15%	CC(C)OCCCNC(=O)C(=O)NCCCOC(C)C
0%	COC(=O)[C@H](Cc1ccccc1)NC(=O)N1CC(C)OC(C)C1 (some centres not stated)
0%	O=C(O)/C=C\C(=O)NNC(=O)c1cc(-c2ccccc2)n[nH]1
3%	Cc1cc2ccccc2c(=O)n1CC(=O)Nc1ccc2c(c1)OCO2
18%	COc1ccc(NC(=O)Cc2nnc(SCC(=O)NC3CCCC3)n2C)cc1
14%	Cn1c(Cl)c(C(=O)Nc2ccccc2)c2ccccc21

# More structures.
VDR inhibitor	structure
-1%	c1ccc(-c2nnc(Cn3c4ccccc4c4nc5ccccc5nc43)o2)cc1
1%	Cc1cc(NC(=O)CSc2nc3sc4c(c3c(=O)n2C)CCCC4)no1
-12%	O=C(NC1=NCCS1)c1ccccc1OCc1ccc(F)cc1
3%	CC[C@@H]1OC(=O)[C@H](C)[C@H](O[C@@H]2C[C@](C)(OC)[C@H](O)[C@H](C)O2)[C@H](C)[C@H](O[C@@H]2O[C@@H](C)C[C@@H](N(C)C)[C@@H]2O)[C@](C)(O)C[C@H](C)C(=O)[C@H](C)[C@H](O)[C@]1(C)O
-3%	CCOC(=O)C1=C(C)NC(=S)NC1c1ccc(OCC(=O)N2CCCCC2)cc1 (configuration not stated)
1%	CCCCCC/C=C/c1ccc(OC)c([C@H]2[C@H]3C=CC[C@@H](C)[C@@H]3C(=O)N2Cc2ccccc2)c1
-11%	Cc1nn(-c2ccccc2)c2c1cc1c(=O)[nH]c(=O)nc-1n2-c1cccc(Cl)c1
-5%	COc1ccc(C(=O)Cc2nnc(C)s2)c(OC)c1
-12%	O=C(CS(=O)(=O)c1cn(CC(=O)N2CCCC2)c2ccccc12)Nc1ccccc1
-15%	Nc1c(C(=O)Nc2ccc3c(c2)OCCO3)nnn1Cc1ccc(F)cc1
5%	O=C(CN1C(=O)C2C3CCC(C3)C2C1=O)OCC(=O)c1ccccc1 (configuration not stated)
1%	O=C(Oc1ccccc1)N1CCC[C@@]2(CCN(c3ccncc3)C2)C1
-10%	CCCS(=O)(=O)Nc1cc2c(cc1NCc1ccccc1)n(C)c(=O)n2C
1%	CN(C)Cc1ccccc1-c1cncnc1Nc1ccncc1
-12%	Cc1cc(NC(=O)CN2C(=O)NC3(CCC(C)CC3)C2=O)no1 (configuration not stated)
-15%	c1ccc(C2Nc3cccc4cccc(c34)N2)cc1
-19%	COc1cc(/C=C2\C(C)=C(C#N)c3nc(N)c(C#N)c(C)c32)ccc1OCC(=O)O
-9%	CCOc1ccc(C(=O)Cn2cnnc2C#N)cc1
-9%	S=c1[nH]nc(CSc2nc3ccccc3s2)n1Cc1ccccc1
1%	COc1ccc(C2c3ccsc3CCN2C(C)=O)cc1 (configuration not stated)
-13%	S=c1[nH]c(=S)c2[nH]cnc2[nH]1
-7%	O=C(N1CCCC1)C12CC3CC(C1)CC(C(=O)N1CCCC1)(C3)C2
0%	Cc1ccc(CNC(=O)Cn2cnc(S(=O)(=O)N3CCCCC3)c2)o1
7%	CCSCc1nnc(SCC(=O)Nc2cccc(SC)c2)n1C
4%	O=C1[C@H](c2ccccc2)[C@@H](c2ccccc2)N1c1ccncc1
-2%	CCCCN(CC)C(=O)c1c[nH]c2ccc(S(=O)(=O)Nc3cccc(OC)c3)cc2c1=O
0%	Cc1ccc(CNC(=O)Cn2cncn2)cc1
-6%	Cc1nc(-c2ccccc2)nc2[nH]c(C(C)C)cc(=O)c12
5%&7%	Cc1c(C(=O)N2CCCC2)oc2c1-c1nn(CC(=O)NCCCOC(C)C)cc1CC2
-8%	CCOc1ccc(Nc2c(S(=O)(=O)c3ccc(C)cc3)cnc3ccccc23)cc1
-8%&-22%	COC(=O)[C@H]1C[C@H]1[C@@H](NC(=O)c1ccc[nH]1)c1ccccc1
7%	COc1ccccc1CNC(=O)COC(=O)C1CC1
-19%	CCOCCCNC(=O)C1(O)c2ccccc2NC(=O)N1c1ccc(C)c(C)c1 (configuration not stated)
-28%	CCN1/C(=C/c2ccc3ccc(C)cc3[n+]2CC)Sc2ccccc21
-8%	C=C1CCC2C(C)(C)[C@H](O)CC[C@@]2(C)[C@@H]1COc1cc(=O)oc2ccccc12 (some centres not stated)
-29%	O=C1COc2ccc(S(=O)(=O)N3CCCCC3)cc2N1
-16%	CC(OC(=O)c1cc(=O)[nH]c2ccccc12)C(=O)NC1CCCC1 (configuration not stated)
-24%	CCOC(=O)c1c(NC(=O)CSc2nc(-c3ccccc3)cc(C(F)(F)F)n2)sc(C)c1C
-22%	Cc1onc(-c2ccccc2)c1C(=O)n1nnc2ccccc21
-6%	CC(=O)Nc1ccc(NC(=O)CSc2nc(=O)n(Cc3cccnc3)c3c2CCC3)cc1
10%	O=C(O)COc1ccccc1/C=N/NC(=O)CSc1nc2ccccc2n1Cc1ccccc1Cl
-2%	CCCc1cc(=O)oc2c(C)c(OC(C)C(=O)NCC(O)c3ccccc3)ccc12 (configuration not stated)
0%	COc1cccc(C(CNC(=O)C2CCN(C(=O)Nc3ccccc3)CC2)N(C)C)c1 (configuration not stated)
-3%	CCCOC(=O)c1ccc(NC(=O)CN(C)Cc2cccs2)cc1
10%	CCc1ccc(NC(=O)CSc2nc3ncccc3[nH]2)cc1
8%	N#CCSc1ccccc1NC(=O)COC(=O)CCN1C(=O)C2CC=CCC2C1=O (configuration not stated)
-2%	O=C(Nc1nc2ccccc2n1CCN1CCOCC1)c1cccc([N+](=O)[O-])c1
-8%&8%	COc1ccc(NC(=O)CSc2nnc(N)s2)cc1
-21%	CC(Oc1ccc(C(=O)c2ccccc2)cc1)C(=O)N1CCOCC1 (configuration not stated)
-8%	CCn1c(CN2CCOCC2)nnc1SCC(=O)Nc1ccc(C)cc1
-22%	CCCC1=Nc2cc(C(=O)N3CCCC3)ccc2Sc2ccc(C)cc21
-13%	COc1ccc(C(=O)C(OC(=O)c2ccccc2)c2ccccc2)cc1 (configuration not stated)
-16%	Brc1cc2c(cc1/C=N/Nc1nc3ccccc3s1)OCO2
-5%	COC(=O)c1cc(S(=O)(=O)N2CCN(c3ccccc3F)CC2)c[nH]1
-17%	O=c1oc(CCO)cc2ccc(-c3ccc4[nH]ccc4c3)cc12
4%	O=C(CSc1nnc(Cc2cccs2)n1C1CCCCC1)N1CCCc2ccccc21
21%	N#CC1=C(N)N(c2ccc(Oc3ccccc3)cc2)C(=O)C1
-1%	O=C(N/C(=C/c1ccc(Cl)cc1)C(=O)N1CCCC1)c1ccccc1
-1%	COc1ccc(C(=O)N2CC(=O)Nc3ccc(C)cc3C2c2ccccc2)cc1 (configuration not stated)
-2%	CC(C)(C)S(=O)c1cccs1 (configuration not stated)

# The list continues:
VDR inhibitor	structure
6%	COCCCNC(=O)CSC1=Nc2ccccc2C2=NC(CCC(=O)NCc3ccccc3OC)C(=O)N12 (configuration not stated)
-10%	Cc1cc(F)ccc1S(=O)(=O)N1CCCOC1CNC(=O)C(=O)NC1CCCC1 (configuration not stated)
-4%	CCOc1ccc(N2C(=O)CSC23CCCCC3)cc1
18%	O=C(CN1C(=O)C2CC=CCC2C1=O)Nc1ccccc1N1CCCC1 (configuration not stated)
5%	CCOC(=O)c1c(NC(=O)CN2CCN(c3cccc(Cl)c3)CC2)sc(C)c1C
1%	CCN1CNC(=S)N(c2ccccc2OC)C1
44%[activator]	Cc1c(-c2ccccc2)cn2c1-c1ccc(C)n1CC2

# Bioassay records: PubChem, National Center for Advancing Translational Sciences (NCATS)
